miR-21 reporter – qHTS Assay for Modulators of miRNAs and/orActivators of miR-21; HeLa miR-21 FLuc reporter, luciferase, 48 h; 340,000 tested, under 10 active; Potency, µM (titrated, usually from 38.3 µM), for the others: top-dose reporter change, positive = more light; AID 2288, 2010; active = well fitted rising curve with a large enough effect; inconclusive = small, poorly fitted or top-dose-only effect; inactive = no such curve, though single readings can be large or run the other way;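 further: % of control where 0% means no effect; miR-21 action dims this reporter so a rising signal means less miR-21 action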
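HeLa cells stably expressing CMV-driven firefly luciferase with a downstream miR-21 binding sequence, endogenously expressing miR-21, were treated with titrations (up to about 40uM final) for 48 hours at 37 degree Celsius. Luciferase luminescence was read after lysis.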
Rango complex inh – qHTS Assay for Inhibitors of Rango (Ran-regulated importin-beta cargo) - Importin beta complex formation; Importin subunit beta-1 (Homo sapiens), Q14974; Rango CFP/YFP FRET sensor + importin beta, 45 min; Potency, µM (top dose mostly 92.2 µM), inactives show at the highest dose inhibition of complex formation; 340,000 tested, 0.031% active; active = rising FRET ratio curve, often small or poorly fitted; inconclusive = mostly compound fluorescence or quenching in the first reads; inactive = flat curves in all reads;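 further: potency means the concentration at half of the fitted maximal effect; 0% = DMSO wells and 100% = buffer wells lacking importin beta; nearly all actives have a fitted effect of over 15% in size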
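FRET biosensor Rango (snurportin 1 IBB between N-terminal EYFP and C-terminal Cerulean), 50 nM in PBS/1 mM DTT/0.02% Tween-20/0.1% BSA, preincubated 5 min RT with compound; 0.125 microM importin beta added, 45 min RT, CFP/YFP FRET ratio read.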
Rango release inh – qHTS Assay for Inhibitors of RanGTP induced Rango (Ran-regulated importin-beta cargo) - Importin beta complex dissociation | Potency, µM (doses to about 46.1 µM), for the others: at the highest dose activity change, negative = inhibition | Snurportin-1 (Homo sapiens) + GTP-binding nuclear protein Ran (Homo sapiens) + Importin … | 340,000 tested, 0.071% active | Biochemical FRET Rango-importin beta, RanGTP-induced dissociation | AID 540253, 2011; active means falling FRET ratio curve, often poorly fitted, with flat reads before Ran was added; inconclusive means other falling curves, or compound fluorescence or quenching; inactive means flat or rising ratio curve;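 further: potency means the concentration at half of the fitted maximal effect; % of control where 0% means no effect; nearly all actives have a fitted effect of over 45% in size; -100% = wells without RanGTP and RCC1; the record marks most hits as doubtful in a second field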
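Two FRET readings bracket the reaction: one 5 min after compound meets Rango–importin beta, another 45 min after RanGTP-RCC1 (0.6 uM Ran, 0.2 uM RCC1, 2 mM GTP) is added. Only the second defines inhibition.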
GLA inh pH 4.5 – qHTS Assay for Inhibitors of Human alpha-Galactosidase at pH 4.5 | activity change, negative = inhibition, % at 105 µM | purified enzyme, 4-MU-alpha-Gal fluorescence, pH 4.5 | Alpha-galactosidase A (Homo sapiens), P06280 | AID 1467, 2008 | 230,000 tested, under 10 active; inconclusive = small, poorly fitted or top-dose-only inhibition, or a rising curve; inactive = flat fitted curve, though single readings scatter; no compound was filed as active;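 further: 0% = full activity with enzyme and -100% = basal without enzyme; dose as in the result columns while the protocol names 77 µM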
Target sequence (P06280 whole entry, looked up): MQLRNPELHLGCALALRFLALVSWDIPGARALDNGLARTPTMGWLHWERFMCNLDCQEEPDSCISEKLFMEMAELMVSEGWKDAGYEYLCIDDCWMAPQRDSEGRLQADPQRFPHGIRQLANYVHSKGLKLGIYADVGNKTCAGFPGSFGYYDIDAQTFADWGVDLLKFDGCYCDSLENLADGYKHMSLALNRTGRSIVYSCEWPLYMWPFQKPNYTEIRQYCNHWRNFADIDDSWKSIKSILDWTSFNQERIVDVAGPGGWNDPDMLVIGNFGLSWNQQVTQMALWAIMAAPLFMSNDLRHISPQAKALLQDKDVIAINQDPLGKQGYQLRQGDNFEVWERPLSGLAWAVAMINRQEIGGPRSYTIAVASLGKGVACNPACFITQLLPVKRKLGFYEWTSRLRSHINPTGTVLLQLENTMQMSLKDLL
* marks the source's active call; other numbers are inactive results; ? = inconclusive; / = not tested or not shown; & = joins results of further samples. These rows are one share of the data. The share of hits here may be higher or lower than overall.

mol	miR-21 reporter	Rango complex inh	Rango release inh	GLA inh pH 4.5
CCOC(=O)N1CCN(Cc2nc3ccc([N+](=O)[O-])cc3c(=O)n2-c2ccc(OC)cc2OC)CC1	3%	-3.3%	-1%	/
CCCCN(C)C(=O)c1nc2ccccn2c1CN1CCN(C(=O)c2cccs2)CC1	-7%	4.4%	-14%	-3
CC1CN(CCCCN2C(=O)c3ccccc3C2=O)CC(C)O1 (stereo not given)	2%	0.7%	-7%	1
Cc1cc(C)cc(C(=O)NC(=S)Nc2ccc(Cc3ccncc3)cc2)c1	0%	1.5%	-13%	-8
CCn1nc(C(=O)NNC(=O)COc2ccccc2C)c2ccccc2c1=O	-6%	2.6%	-5%	0
Cc1cccc(N2CC(C(=O)Nc3ccc(S(=O)(=O)Nc4nccs4)cc3)CC2=O)c1C (stereo not given)	-1%	0.1%	-25%	/
O=c1[nH]nc(Cc2ccccc2)c2ccccc12	-19%	-0.8%	0%	10
N#C/C(=C\c1ccc(OCc2ccccc2)cc1)C(=O)Nc1ccc(C(=O)O)cc1	-31%	-1.1%	-2%	/
COc1ccc(S(=O)(=O)N2CCCCCC2)cc1C(=O)N1CCN(c2ccc(F)cc2)CC1	/	-0.4%	31%	/
CC(=O)N1CCOc2ccc(S(=O)(=O)Nc3ccc(C)cn3)cc21	0%	1.0%	6%	/
Cc1c(N2C(=O)CSC2c2ccco2)c(=O)n(-c2ccccc2)n1C (stereo not given)	-6%	2.5%	-16%	-1
C[C@H](NC(=O)Nc1cccc(Br)c1)C(=O)O	0%	-2.9%	2%	-1
Cc1[nH]c(C)c2c(=O)[nH]ncc12	-1%	?	?	-10
COCCN1C(=O)C(=O)/C(=C(/O)c2cccc(OC)c2)C1c1ccc(C)o1 (stereo not given)	0%	0.1%	-4%	-17
Cc1ccc(C(=O)Nc2cccc(NC(=O)c3cccs3)c2)c(C)c1	3%	-3.1%	0%	/
Cc1ccc(CNC(=O)C2CC(c3ccccc3[N+](=O)[O-])=NO2)cc1 (stereo not given)	-14%	4.9%	-13%	4
COc1ccc(C(CNC(=O)C(CCSC)NC(=O)c2ccccc2Cl)N2CCCCC2)cc1 (stereo not given)	/	0.6%	2%	/
O=C(NCc1ccc2c(c1)OCO2)c1ccc(NC(=O)C2CCCO2)cc1 (stereo not given)	-10%	-1.3%	19%	4
COC(=O)C(Cc1ccccc1)NCC(=O)Nc1cccc(Cl)c1C (stereo not given)	1%	2.5%	7%	/
O=C(CN1C(=O)NC2(CCOc3ccccc32)C1=O)c1ccc(F)c(F)c1 (stereo not given)	/	0.6%	21%	/
COc1ccc(CCNC(=O)c2ccc(CS(=O)(=O)c3ccc(Cl)cc3)o2)cc1OC	25%	1.4%	9%	-1
COc1ccc(NC(=S)N2CCN(C/C=C/c3ccccc3)CC2)cc1	-4%	5.0%	-9%	-7
Cc1ccc2c(c1)C1CN(C)CCC1N2CC(=O)N(C)c1ccccc1 (stereo not given)	1%	0.7%	-18%	0
Cc1[nH]c2ccccc2c1SCC(=O)N1CCCCC1	-6%	?	-9%	-8
Cc1cc(C)n(/N=C/c2c[nH]c3ccccc23)c(=O)c1C#N	-6%	-1.4%	-19%	-9

3 entries from above, with each value named.
CCn1nc(C(=O)NNC(=O)COc2ccccc2C)c2ccccc2c1=O
  miR-21 reporter = -6%; Rango complex inh = 2.6%; Rango release inh = -5%; GLA inh pH 4.5 = 0

Cc1cccc(N2CC(C(=O)Nc3ccc(S(=O)(=O)Nc4nccs4)cc3)CC2=O)c1C (stereo not given)
  miR-21 reporter = -1%; Rango complex inh = 0.1%; Rango release inh = -25%; GLA inh pH 4.5 = /

O=c1[nH]nc(Cc2ccccc2)c2ccccc12
  miR-21 reporter = -19%; Rango complex inh = -0.8%; Rango release inh = 0%; GLA inh pH 4.5 = 10

The listing continues.
mol	miR-21 reporter	Rango complex inh	Rango release inh	GLA inh pH 4.5
O=C(NCc1ccccn1)Nc1ccccc1C(F)(F)F	-4%	-2.3%	-20%	/
COc1ccc2[nH]c(C)c(C(=O)CN3CCN(C/C=C/c4ccccc4)CC3)c2c1	-6%	0.4%	7%	-3
COc1ccc(Cl)cc1NC(=S)N1CCCC1	-4%	3.1%	1%	5
CCn1nc(C)cc1C(=O)N1CCCC(C(=O)c2ccccc2SC)C1 (stereo not given)	10%	0.1%	-2%	/
O=C(C1=C[C@@H]2[C@H]3C(=O)N(c4ccccc4)C(=O)[C@H]3[C@@H](C(=O)c3ccc(Cl)cc3)N2C=C1)c1ccccc1	-14%	/	/	3
O=C(COC(=O)c1cccs1)c1ccccc1	-42%	-5.0%	3%	4
COc1ccc(OC)c(NS(=O)(=O)c2ccc(-c3coc(C)n3)cc2)c1	6%	-0.3%	7%	/
Cc1ccccc1C(=O)NCCCn1ccnc1	-5%	-1.2%	9%	/
CCN1CCN(CCNC(=O)Nc2ccc([N+](=O)[O-])cc2)CC1	4%	-3.0%	17%	-5
O=C(CC1SC(N2CCCCC2)=NC1=O)Nc1cccc(C(F)(F)F)c1 (stereo not given)	1%	0.0%	-3%	-4
COc1ccc(CC(=O)NCC(=O)N/N=C/c2c[nH]c3ccccc23)cc1	5%	-1.3%	-13%	/
CC(=C\c1ccco1)/C=C(\C#N)C(=O)NCCc1c[nH]c2ccccc12	-4%	-2.4%	1%	-2
N#Cc1ccc(OCC(O)CN2CCC(C(O)(c3ccccc3)c3ccccc3)CC2)cc1 (stereo not given)	5%	-0.2%	1%	/
CSCC[C@H](NC(=O)[C@H](Cc1ccccc1)n1c(=O)[nH]c2ccccc2c1=O)C(=O)N1CCC[C@H]1C(=O)O	-1%	0.4%	4%	/
COc1ccc(C(C)=O)cc1CC(=O)NCCCn1ccnc1	-3%	0.0%	10%	/
CC[C@@H]1[C@H]2CCCC(=O)N3CC[C@@H](C[C@H]1O)[C@@H]23	/	1.2%	-11%	/
NNc1nc(-c2ccccc2)nc2sc3c(c12)CCCC3	-69%	9.1%	4%	3
COc1ccc(CCn2c(O)c(C3=c4ccccc4=NC3=O)sc2=S)cc1OC	-1%	-4.6%	9%	/
CCOc1ncccc1C(=O)OCC(=O)NCc1cccs1	/	4.1%	19%	/
O=C(COc1ccccc1)c1cn(CC(=O)N2CCCC2)c2ccccc12	-2%	0.0%	-26%	5
Nc1nc(-c2ccccc2)cs1	-38%	0.2%	-2%	1
OCC[C@@H]1C[C@@H](O)[C@H](O)[C@]2(OCCCc3ccccc32)O1	-1%	-5.6%	5%	/
Cc1ccccc1NC(=O)NCC1CCN(Cc2cccc(Cl)c2)CC1	1%	4.0%	2%	/
COc1ccccc1CNS(=O)(=O)c1cc(C(=O)N(C)Cc2cccnc2)c(Cl)cc1Cl	/	-0.2%	13%	/
CCOc1ccccc1N(CC(=O)NC1CCCCC1)C(=O)c1nsc(Cl)c1Cl	17%	0.4%	-2%	1
COC(=O)Cn1c(=NC(=O)C(C)C)sc2c(C)cc(C)cc21	-7%	0.2%	-6%	6
CCOCCCN(C)C1CCN(C(=O)c2oc3ccccc3c2NC(=O)Cc2ccc([N+](=O)[O-])cc2)CC1	-5%	1.7%	1%	/
O=C(CCc1ccccn1)N1CCCC(N2CCN(c3cccc(C(F)(F)F)c3)CC2)C1 (stereo not given)	5%	0.7%	1%	/
COc1ccc(N2CCN(CC(O)COc3c(OC)cccc3OC)CC2)cc1 (stereo not given)	-17%&-7%	-1.2%	18%	/
Cc1cccc([C@@H]2[C@@H]3C(=O)N(Cc4ccccc4)C(=O)[C@@H]3[C@]3(CC(C)C)C(=O)N(c4cccc(Cl)c4)C(=O)N23)c1	12%	-0.6%	-7%	/
CCCCOc1cccc(C2C(C(=O)c3ccc(C)o3)=C(O)C(=O)N2c2nnc(C)s2)c1 (stereo not given)	-8%	?	?	/
CCOC(=O)CSc1nnc(Cc2ccc(OC)cc2)n1-c1ccccc1	3%	-0.2%	-5%	1
COc1ccc(OC)c(NC(=O)CSc2nc(N)c(-c3ccccc3)c(=O)[nH]2)c1	-28%	1.3%	-12%	7
CN(C)CCC(=O)N1c2ccccc2Sc2ccc(C(F)(F)F)cc21	1%	-2.5%	-8%	/
NS(=O)(=O)c1ccc(-c2ccc(/C=C3\SC(=S)N(C4CCS(=O)(=O)C4)C3=O)o2)cc1 (stereo not given)	14%	?	-28%	-8
Cc1ccc2[nH]c(=O)c(CN(CC3CCCO3)S(=O)(=O)c3cccc4nsnc34)cc2c1 (stereo not given)	18%	0.0%	-1%	-3
CCn1c(Cc2ccccc2)nnc1SCC(=O)NC1CCCC1	-1%	-4.4%	11%	4
CN(C(=O)c1cccc(NC(=O)Cc2ccc(NC(=O)C3CCN(C(=O)C4CCCCC4)CC3)cc2)c1)C1CCCCC1	/	-0.2%	-6%	/
CCc1nnc(NC(=O)CSc2nc3ccccc3s2)s1	-12%	-0.4%	1%	-2
COc1ccc(NS(=O)(=O)c2cccc(C(=O)OCC(=O)Nc3cc(C)on3)c2)cc1	2%	-4.8%	6%	-6
COc1nc(C)cc(C)c1S(=O)(=O)c1ccccc1C	4%	-1.2%	20%	/
COc1ccc(N2CCN(C(=O)CSc3ccccc3)CC2)cc1	-25%	3.7%	-13%	16
COc1ccc(S(=O)(=O)N2CCN(c3nn(C)c(=O)n(C)c3=O)CC2)cc1	/	-0.6%	-6%	/
CC1(C)OC(=O)C(=NNc2ccc(Cl)cc2)C(=O)O1	-14%	-2.3%	-1%	-3
CC(C)Nc1nc(-c2ccccc2)nnc1-c1ccccc1	-4%	2.8%	6%	3
COc1cccc(-c2ncc3ccccc3c2COC(=O)c2ccccc2C(=O)O)c1	/	0.0%	-17%	/
COc1ccccc1OCCn1nnc2ccccc21	-52%	-3.6%	-8%	/
CCN(CC)C(=O)COc1ccc(/C(C)=N/NC(=O)c2ccccc2-n2cccc2)cc1	-8%	-0.6%	10%	/
C=CCNc1c2c(nc3ncnn13)CC(C)CC2 (stereo not given)	-6%	-0.1%	-2%	4
COCCN(C(=O)CSc1nc2ccc(OC)cc2[nH]1)c1c(N)n(Cc2ccccc2)c(=O)[nH]c1=O	/	0.6%	3%	/

Continuation:
mol	miR-21 reporter	Rango complex inh	Rango release inh	GLA inh pH 4.5
O=C(CCN1C(=O)/C(=C/c2ccccc2)SC1=S)N1CCCCCC1	0%	5.9%	2%	/
CCOC(=O)c1sc(=NC(=O)c2ccccc2Br)n(C)c1C	-62%	-2.2%	?	/
COC(=O)/C=C1\SC(=NC(=O)c2ccc(C)cc2)NC1=O	-11%	-1.8%	0%	3
CC1CCN(S(=O)(=O)c2ccc3c(c2)oc(=O)n3C)CC1	1%	-0.5%	10%	/
COc1cc2cc(Oc3ccc4ccc(=O)oc4c3)c(=O)oc2cc1OC(=O)C=C(C)C	-1%	/	/	5
COc1ccc(C[C@](C)(N)C(=O)O)cc1OC	/	0.6%	14%	/
O=C(Nc1nnc(-c2ccccc2Cl)s1)c1ccccc1F	-18%	-1.2%	15%	/
Cc1ccc(C(=O)CCC(=O)Nc2cccc(C(F)(F)F)c2)cc1C	/	-3.3%	-11%	/
C=CCn1c(Cc2cccs2)nnc1SCC(=O)Nc1ccc(OC)c(OC)c1	6%	0.7%	-10%	-2
